PABP FP inh: PABP poly(A) RNA binding inhibitors, primary screen, biochemical, fluorescence polarization, uHTS; 1% of 290,000 active; Polyadenylate-binding protein 1 (Homo sapiens), P11940; inhibition, % at 35 µM;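 active means 50% or more with normal probe brightness, or confirmed in later tests; inconclusive means above 50% with abnormal brightness, or retests that disagree; inactive means below 50% or failed in later tests; about a fifth of its hits are not listed in these tables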;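 further: calls also rest on retests at 20 µM and on dose response follow-up; controls were probe without protein and protein plus probe with vehicle; some compounds called inactive have numbers as strong as hits; many hits fall short of the cut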
Target sequence (P11940 whole entry, looked up): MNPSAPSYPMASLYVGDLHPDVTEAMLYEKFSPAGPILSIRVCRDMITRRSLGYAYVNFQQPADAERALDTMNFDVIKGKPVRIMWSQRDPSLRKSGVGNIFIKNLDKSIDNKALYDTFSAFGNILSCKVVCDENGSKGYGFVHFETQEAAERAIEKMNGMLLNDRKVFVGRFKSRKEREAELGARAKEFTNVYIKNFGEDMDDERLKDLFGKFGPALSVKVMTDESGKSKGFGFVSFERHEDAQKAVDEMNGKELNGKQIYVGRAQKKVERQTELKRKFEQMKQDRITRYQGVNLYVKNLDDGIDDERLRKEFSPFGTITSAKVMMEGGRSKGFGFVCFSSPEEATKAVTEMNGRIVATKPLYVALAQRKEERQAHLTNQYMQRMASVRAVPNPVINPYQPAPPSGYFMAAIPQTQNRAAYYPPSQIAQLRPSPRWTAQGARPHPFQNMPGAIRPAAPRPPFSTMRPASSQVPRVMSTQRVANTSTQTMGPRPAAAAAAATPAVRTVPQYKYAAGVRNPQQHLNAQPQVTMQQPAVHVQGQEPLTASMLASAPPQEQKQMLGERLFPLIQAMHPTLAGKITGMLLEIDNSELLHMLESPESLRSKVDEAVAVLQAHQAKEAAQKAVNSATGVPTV
Rce1 inh: yeast Rce1p protease inhibitors, primary screen, biochemical, fluorescence, cell-free homogeneous; CAAX prenyl protease 2 (Saccharomyces cerevisiae (strain ATCC 204508 / S288c)), Q03530; yeast membranes, quenched prenylated peptide cleavage fluorescence; calls only; 0.27% of 290,000 active; AID 2563, 2010;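 active means fall in fluorescence gain of 50% or more versus controls, with final raw signal at or below 3038400; inconclusive means same 50% fall but final raw signal above 3038400; inactive means fall in fluorescence gain under 50%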;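 further: plate controls were neutral control wells for no effect and wells lacking membranes for full effect; tested at 10 µM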
Target sequence (Q03530 whole entry, looked up): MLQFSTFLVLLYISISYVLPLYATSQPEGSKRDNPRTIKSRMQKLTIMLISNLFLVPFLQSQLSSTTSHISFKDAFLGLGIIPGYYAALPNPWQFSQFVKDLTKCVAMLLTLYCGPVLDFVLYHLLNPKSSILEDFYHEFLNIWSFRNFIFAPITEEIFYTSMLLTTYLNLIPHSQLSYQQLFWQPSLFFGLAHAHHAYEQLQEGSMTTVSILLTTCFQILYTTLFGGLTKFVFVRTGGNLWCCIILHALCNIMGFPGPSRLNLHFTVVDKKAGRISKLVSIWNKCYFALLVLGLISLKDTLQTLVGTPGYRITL
eIF4H FP inh: human eIF4H binding inhibitors, primary screen, translation initiation inhibitor project, biochemical, uHTS, fluorescence polarization; Eukaryotic translation initiation factor 4H (Homo sapiens), Q15056; eIF4H fluorescence polarization binding assay; inhibition, % at 35 µM; 0.94% of 290,000 active; AID 2012, 2009;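 active means 50% or more with normal probe brightness, or confirmed in later tests; inconclusive means above 50% with abnormal brightness, or retests that disagree; inactive means below 50% or failed in later tests; about a fifth of its hits are not listed in these tables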;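 further: calls also rest on retests at 20 µM and on dose response follow-up; 0% = protein and probe with vehicle and 100% = probe without protein; strong numbers were not always called active; many hits fall short of the cut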
CSC inhib: cancer stem cell viability inhibitors, primary screen, luminescence; cancer stem cell-like cells viability; inhibition, % at 7.5 µM; 1.1% of 300,000 active;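 active means mean at 75% or more and at least half the replicates too; inconclusive means mean and replicates disagree; tested in HMLE shEcad cells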;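 further: 0% = median of negative and 100% = median of positive control wells; the first replicate is given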
HIV Env fusion: inhibitors of HIV-1 Env-driven cell-cell fusion, primary screen, HeLa-JRFL effector, CEM21 target cells, luciferase. 1.1% of 360,000 active. inhibition, % at 12.3 µM;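 active means mean replicate inhibition score of at least 50 and every replicate individually at or above 50; inconclusive means only one of the two criteria met; inactive means mean below 50 and not all replicates reaching 50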;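 further: 0% = plate neutral controls and 100% = maraviroc near 300 nM; one replicate is shown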
UUG fidelity: modulators of yeast start codon fidelity, primary screen, whole organism, S. cerevisiae, single point, plate reader; AID 602363, 2012; S. cerevisiae UUG-firefly luciferase reporter, luminescence/redox ratio; 0.13% of 350,000 active; activity score, % at 18.7 µM;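 active means replicate mean at a twofold rise or more, about +100% in these data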;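 further: firefly luciferase made from a UUG start codon reports start codon fidelity; reporter light over untreated wells divided by growth signal over untreated wells; some hits fall short of that in this replicate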
MT1-MMP act inh: blockers of MT1-MMP proenzyme processing, primary screen, HT1080 RFP-PRO-GFP cells, GFP/RFP fluorescence. Matrix metalloproteinase-14 (Homo sapiens), P50281. 0.061% of 360,000 active. GFP/RFP ratio fluorescence, overnight; percent of plate control window, DMSO zero. GFP/RFP ratio change, % at 20 µM;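 active means GFP/RFP ratio change of at least 30% with cell ATP level not reduced by more than half and red fluorescence within 50% of control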; further: strong numbers were not always called active
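system = RFP-PRO-GFP reporter HT1080 cells | dosing = 20 µM single dose, 1% DMSO | timing = overnight cell settling, then overnight compound exposure, 37 °C, 5% CO2 | read-out basis = GFP/RFP fluorescence ratio | controls = DMSO and RFP-L50D-GFP cell wells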
eIF4H FP inh retest: also measured in eIF4H FP inh; calls as there; inhibition, %; compound at 20 µM; confirmation average;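 mean of two retest wells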
PABP FP inh retest: also measured in PABP FP inh; calls as there; inhibition, %; compound at 20 µM; confirmation repeats;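 mean of two retest wells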
MT1-MMP act inh RFP: recorded beside MT1-MMP act inh, whose call it bears; RFP signal change, %; measured here: RFP expression control read;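 0 = vehicle wells; hits needed this value within 50% of zero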
* = called active by the depositor; i = inactive; ? = inconclusive; . = no result given.

SMILES	PABP FP inh	Rce1 inh	eIF4H FP inh	CSC inhib	HIV Env fusion	UUG fidelity	MT1-MMP act inh	MT1-MMP act inh RFP	others
COC(=O)c1ccc(NC(=O)c2ccc(CN3CCOCC3)cc2)cc1	5.3	i	1.7	-8.2	83.7*	-3.9	-0.8	-16.0
Cc1cc(=O)n2c(n1)OC(CO)C2 (stereo unspecified)	-9.9	i	-0.1	.	.	-11.3	0.7	0.3
O=C(CSc1ccc(-c2cccc([N+](=O)[O-])c2)nn1)N1CCCCC1	0.1	i	2.0	.	-2.2	.	0.8	1.0
CCn1c(=O)cc(SCC(=O)NCCCN2CCN(c3ccccc3F)CC2)c2ccccc21	-5.5	i	-5.7	.	.	5.8	11.8	4.9
CN(c1ncc(C(F)(F)F)cc1Cl)N1C(=O)c2cccc([N+](=O)[O-])c2C1=O	-5.2	i	-7.4	-3.5	5.3	.	-0.2	1.7
O=C(COC(=O)c1ccc(F)cc1Cl)NC1CCCCCCC1	.	.	.	-15.7	-1.4	9.6	-3.2	-4.9
Cc1cc(C)cc(NC(=O)CSc2n[nH]c(-c3cccnc3)n2)c1	3.3	i	-0.4	-1.2	8.3	-6.5	0.7	1.2
Cn1cnc([N+](=O)[O-])c1SCC(O)CCl (stereo unspecified)	-8.0	i	-1.7	-1.0	4.9	.	-3.6	-2.7
Cc1nc(C)c(C(=O)NCc2ccc(Cl)cc2)o1	-6.0	i	6.4	0.4	.	3.2	1.9	-10.1
CC1Cc2ccccc2N1C(=O)c1ccc(Br)o1 (stereo unspecified)	.	i	.	11.4	-102.4	-8.0	-0.7	-1.9
CC(=O)c1ccc(NC(=O)c2cc3nc4c(c(C(F)(F)F)n3n2)CCCC4)cc1	1.6	i	-4.5	.	.	.	.	.
O=C(CSc1nnc2ccccn12)NC(=O)c1cccc([N+](=O)[O-])c1	.	.	.	.	14.5	0.5	-2.5	0.1
COCC(=O)Nc1c(C(=O)Nc2cccc(OC)c2)oc2ccccc12	33.6	i	2.4	9.9	-128.0	-15.6	8.7	-1.3
O=C(c1ccc(F)cc1)C(CCCCCC(CN1CCOCC1)C(=O)c1ccc(F)cc1)CN1CCOCC1 (stereo unspecified)	-8.7	i	-3.2	-1.5	.	.	.	.
Cc1ccc(C(=O)NCc2ccc(N3CCN(C)CC3)cc2)cc1C	3.0	i	-7.3	.	-6.6	-9.0	-1.4	1.9
COc1ccc(CCn2c(-n3nc(C)cc3C)nc3c2c(=O)[nH]c(=O)n3C)cc1	.	i	.	56.4	.	-2.9	-1.4	-13.4
Cc1csc(NC(=O)CSc2nccn2Cc2ccco2)n1	7.4	i	-7.2	-25.4	1.4	-24.5	0.8	-2.3
CCOc1ccc(-n2c(C)nc3cc(C(=O)NCCCN4CCOCC4)ccc32)cc1	11.3	i	9.6	-13.3	.	-21.6	-3.1	-1.9
O=C(Nc1ccccc1)c1cc(C2CCCN(C(=O)C/C=C/c3ccccc3)C2)on1 (stereo unspecified)	.	.	.	.	-6.6	0.5	-2.4	-1.8
CC(C)(C)OC(=O)NCCCCCc1nnc(SCC(N)=O)o1	-1.3	i	0.6	-8.9	17.5	-6.4	8.0	2.2
Cc1cc(O)cc(=O)n1Cc1ccco1	0.8	i	-0.1	-11.5	.	-9.9	-1.1	3.6
COc1ccc(C(=O)NCc2csc(-c3cccs3)n2)cc1	1.4	i	-4.4	2.8	-3.8	.	0.5	-2.4
COc1ccc(Cn2nnnc2C(c2ccc(N(C)C)cc2)N2CCC(C(N)=O)CC2)cc1 (stereo unspecified)	-3.9	i	-5.8	10.2	16.0	.	1.6	-0.4
COc1ccc(NS(=O)(=O)c2ccc(C)c(C(=O)NC3CCN(Cc4ccccc4)CC3)c2)cc1	18.4	i	7.4	-8.8	.	-6.1	7.5	-6.6
NC(=S)Nc1ccc2cn[nH]c2c1	-9.1	i	-5.3	-19.3	10.6	.	3.2	8.7
O=[N+]([O-])c1ccc(Sc2cc[n+]([O-])c3ccccc23)c([N+](=O)[O-])c1	3.0	i	2.1	59.3	5.1	-3.8	-1.4	-5.9
COc1ccc(/C=N/NC(=O)Cc2cccs2)cc1	-4.4	i	-6.8	-16.5	-15.4	.	1.5	-0.4
O=C(CN1CCN(c2ccccc2)CC1)Nc1ccccc1Sc1ccccc1	1.6	i	-5.4	-1.5	12.5	.	-7.5	-9.7
CCOC(=O)C(=CNc1ccc(C(F)(F)F)cc1)C(=O)OCC	4.3	i	-11.4	13.0	-19.2	.	-2.8	-2.5
Cc1ccc(C)c(OCc2cc(C(=O)N3CCN(C(=O)c4ccco4)CC3)no2)c1	-2.0	i	4.0	-5.0	-63.8	-12.5	2.7	2.9
Cc1n[nH]c(=O)nc1NCc1ccccc1	2.2	i	-0.7	-7.2	-78.2	-15.6	1.5	4.7
CCN1CCN(c2nc(Nc3ccc(NC(C)=O)cc3)nc(Nc3ccc(NC(C)=O)cc3)n2)CC1	5.3	i	8.1	-2.9	-5.2	.	5.4	4.7
CCCNC(=O)OC[C@H]1O[C@H](CCO/N=C(\C)CCN2CCc3nc(-c4ccccc4)c(-c4ccccc4)cc3C2)C=C[C@@H]1Oc1ccc(OC)cc1	7.9	i	68.1*	38.2	.	.	.	.	eIF4H FP inh retest=83.9*;PABP FP inh retest=49.0
CCC(C)(C)NC(=O)C(c1ccc(C)cc1)N(Cc1cccs1)C(=O)c1ccc2c(c1)OCCO2 (stereo unspecified)	10.6	i	2.9	1.5	.	-9.0	-13.8	-7.5
CCCC(=O)Nc1cc(-c2nn(C)c(=O)c3ccccc23)ccc1OC	6.1	i	-7.5	-12.9	-14.0	-13.7	.	.
O=S(=O)(c1ccc(Cl)c(C(F)(F)F)c1)N1CCN(CC(O)COc2ccccc2F)CC1 (stereo unspecified)	1.8	i	-1.4	.	2.7	18.3	5.3	-1.6
COc1cc(C(C)n2nnc3ccccc32)ccc1O (stereo unspecified)	.	.	.	.	-58.7	-6.7	1.4	1.1
O=C(NCCN1CCOCC1)/C(=C\c1ccccc1F)NC(=O)c1ccccc1	-0.9	i	-7.6	-1.4	2.6	-4.9	-0.3	1.1
CC(=O)N1c2ccc(S(=O)(=O)NCCC(=O)Nc3ncccc3C)cc2CC1C (stereo unspecified)	2.1	i	-7.9	-13.4	-10.3	-10.5	-0.7	-0.6
COCCn1nnnc1CN1CCN(C(=O)c2ccco2)CC1	4.8	i	-5.6	-5.2	1.0	-3.1	2.9	1.9
COc1ccccc1CNC(=O)c1cc(=O)c2ccccc2o1	5.3	i	-5.8	-2.7	13.6	.	9.7	-2.2
Cc1cc(C)c(C(=O)NCCCN2CCOCC2)c(C)c1	-5.5	i	-2.5	0.2	?	-16.8	0.9	1.0
C[C@]12CCC(=O)CC1CCC1C2CC[C@@]2(C)C1CC[C@@]21CCO1 (stereo partly specified)	4.4	i	-8.8	1.6	-7.3	-11.3	9.2	-1.2
CCN1C(=NCCc2cccnc2)N[C@@H](c2ccccc2)[C@H](C(=O)OC)[C@H]1C	28.9	i	-12.3	-6.5	.	-18.3	5.9	-1.0
COc1cc2ccccc2cc1C(=O)N(CCN(C)C)c1nc2c(C)cccc2s1	-8.0	i	-16.8	10.1	32.6	1.6	-3.0	2.6
COc1ccccc1NC(=O)CSc1sc2c(O)cc(=O)[nH]c2c1C#N	23.9	i	41.8	0.8	17.1	-11.9	-5.1	0.4
Cc1ccc(C)c(/C(O)=C2/C(=O)C(=O)N(CCN3CCOCC3)C2c2ccc(C)o2)c1 (stereo unspecified)	-3.1	i	-0.9	-6.5	.	-27.1	-9.8	6.2
CC(C)Oc1ccc(S(=O)(=O)N2CCOCC2)cc1NC(=O)c1cc([N+](=O)[O-])ccc1N1CCOCC1	.	i	.	.	3.5	-2.8	-0.1	-11.8
CCC1CC(C)(C(=O)Nc2ccc(S(N)(=O)=O)cc2)OC1=O (stereo unspecified)	11.6	i	-3.1	-19.8	2.6	-17.5	-1.0	-0.8
CCCCN(C(=O)C1CCCC1)c1c(N)n(CCC)c(=O)[nH]c1=O	.	.	.	.	i	-14.2	1.3	4.4
COc1cc(/C=N/Nc2ncc(C(F)(F)F)cc2Cl)cc(OC)c1OC	-12.0	i	-11.5	14.0	11.6	.	7.5	4.4
COC(=O)C1CCN(C(=O)C23CCC(C)(C(=O)O2)C3(C)C)CC1 (stereo unspecified)	8.9	.	0.2	-18.0	.	-24.6	0.4	0.1
CCOC(=O)C1CCCN(S(=O)(=O)c2c(C)c(C)cc(C)c2C)C1 (stereo unspecified)	0.6	i	-9.1	5.0	27.8	-2.1	7.3	0.1
COc1ccc(OC)c(NC(=O)c2nc3ccccc3s2)c1	3.8	i	-0.1	-0.5	-35.0	.	-0.7	-1.5
CCOc1ccc(N(CC(=O)N/N=C/c2cccnc2)S(C)(=O)=O)cc1	7.7	i	8.5	6.1	19.5	.	.	.
COc1ccccc1NC(=O)Cc1csc(N)n1	6.5	i	-3.9	-1.5	.	-5.2	0.1	3.8
COc1ccccc1NS(=O)(=O)c1cccc(C(=O)OCC(=O)NC2CC2)c1	.	i	.	.	4.6	.	-0.1	-0.2
O=[N+]([O-])c1ccccc1CS(=O)(=O)c1ccccc1	.	i	.	-4.3	6.7	-22.2	-3.8	-0.8
CN(C(=O)COC(=O)c1cccc(S(=O)(=O)N2CCOCC2)c1)C1CCS(=O)(=O)C1 (stereo unspecified)	.	i	.	-12.7	.	-2.6	0.6	4.2
COc1ccc(N(CC(=O)Nc2c(C)n(C)n(-c3ccccc3)c2=O)S(=O)(=O)c2ccc(C)cc2)cc1	6.2	i	-7.4	-9.1	-7.2	.	2.7	4.9
Cn1c(N)c(C(=O)COC(=O)/C=C/c2ccc(F)cc2)c(=O)n(C)c1=O	.	.	.	-14.4	-3.9	-6.4	5.3	-3.9

Filtered by structure: the entries above with two or more sulfur atoms
SMILES	PABP FP inh	Rce1 inh	eIF4H FP inh	CSC inhib	HIV Env fusion	UUG fidelity	MT1-MMP act inh	MT1-MMP act inh RFP	others
Cc1csc(NC(=O)CSc2nccn2Cc2ccco2)n1	7.4	i	-7.2	-25.4	1.4	-24.5	0.8	-2.3
COc1ccc(C(=O)NCc2csc(-c3cccs3)n2)cc1	1.4	i	-4.4	2.8	-3.8	.	0.5	-2.4
COc1ccccc1NC(=O)CSc1sc2c(O)cc(=O)[nH]c2c1C#N	23.9	i	41.8	0.8	17.1	-11.9	-5.1	0.4
CN(C(=O)COC(=O)c1cccc(S(=O)(=O)N2CCOCC2)c1)C1CCS(=O)(=O)C1 (stereo unspecified)	.	i	.	-12.7	.	-2.6	0.6	4.2

Compound activity: PubChem BioAssay, several laboratories

This is a random part of the collection, and some 2.9% of all compounds hit somewhere here.
